# Source: PubChem BioAssay
# Sa growth inh: S. aureus growth inhibition at 42 and 30 °C, primary screen, LtaS inhibitor project, RN4220, two temperatures; 170,000 tested, 0.53% active; OD600, 20 h, 42 °C; active compounds read low; relative growth, % (test concentration not listed);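 active = growth at 42 °C up to 50% and 20 or more points under that at 30 °C, or under 10% at both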;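 also: 300 nL library stock went into each well; scaled to the means of positive and negative controls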
# HCMV UL50-53 inh: inhibitors of HCMV UL50-UL53 interaction, biochemical, HTRF | normalized percent inhibition | inhibition, % (test concentration not listed) | 190,000 tested, 0.15% active | AID 1918969, 2023;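 active = both replicates at 50% or more, plus weaker picks with an unusually low signal ratio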;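 also: stock transfer was 100 nL into about 20 µL; 0% = negative control wells and 100% = wells with untagged competitor protein; inactives centre near -12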
# GIV Gai3 FP: inhibitors of GIV peptide binding to Galpha-i3, primary screen, biochemical, fluorescence polarization, FITC-GIV GBA peptide, rat Galphai3. percent of control (FP), % (test concentration not listed). Guanine nucleotide-binding protein G(i) subunit alpha-3 (Rattus norvegicus), P08753. 90 min; active compounds read low; scaled: aluminum fluoride 0%, vehicle 100%. 210,000 tested, 0.42% active;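 active = replicate mean at 85% of control or lower, very high polarization wells dropped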;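 also: lower values mean more displacement of the GIV peptide from Galpha-i3; wells of about 15 µL received 100 nL stock; the first replicate is given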
# Target sequence (P08753 whole entry, looked up): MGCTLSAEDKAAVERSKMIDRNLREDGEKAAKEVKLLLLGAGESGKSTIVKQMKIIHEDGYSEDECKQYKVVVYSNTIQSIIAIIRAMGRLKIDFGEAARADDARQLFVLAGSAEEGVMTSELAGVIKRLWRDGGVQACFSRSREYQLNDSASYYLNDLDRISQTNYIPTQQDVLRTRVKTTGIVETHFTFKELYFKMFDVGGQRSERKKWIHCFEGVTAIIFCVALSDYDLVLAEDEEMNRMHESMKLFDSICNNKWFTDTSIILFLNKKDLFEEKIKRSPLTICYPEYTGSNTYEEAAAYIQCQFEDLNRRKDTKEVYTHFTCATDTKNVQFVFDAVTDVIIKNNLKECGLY
# Sa growth inh second temp: further read-out of Sa growth inh, marked with its call; relative growth, %; measured here: growth at 30 °C;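 optical density after 20 h as mean of two plates; 100% = untreated growth and lower means inhibition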
# * hit, by the source's call; . = not tested or not shown; & = joins results of further samples. The order is random; 0.79% or so of the library scored in one or more.
cpd	Compound	Sa growth inh	Sa growth inh second temp	HCMV UL50-53 inh	GIV Gai3 FP
1	O=S(=O)(c1cccc(C(F)(F)F)c1)c1cnc2ccccc2n1	.	.	-23	103
2	Cn1nccc1NC(=O)c1cccc2c1OC(C)(C)C2	100	106	8	100
3	Cc1cc(S(=O)(=O)N2CCOCC2)ccc1N=Cc1c(C)[nH]n(-c2ccc(Cl)cc2)c1=O	109	82	-20	100
4	COc1ccc(CCNC(=O)c2c(O)nc3ccccn3c2=O)cc1OC	89	67	-36	95
5	CCN(C1CCS(=O)(=O)C1)S(=O)(=O)c1cc(N2C(=O)CCS2(=O)=O)ccc1C (stereo unspecified)	.	.	-5	103
6	COc1cccc(CNC(=O)c2cnn3c4c(cnc23)CCCCC4)c1	106	96	.	105
7	O=C(Nc1ccc(Cl)cc1)c1ccc(-n2cnnc2)cc1	101	85	.	107
8	CC1CCCN(S(=O)(=O)c2cccc(N)c2)C1 (stereo unspecified)	.	.	-30	100
9	Cc1nn2c(C(F)(F)F)cc(-c3cccnc3)nc2c1-c1ccccc1	.	.	-5	106
10	Cn1c(=O)c2c(nc(NCc3ccccc3)n2C)n(C)c1=O	94	87	-9	104
11	COc1ccc(Cl)cc1NC(=O)c1cc2nc(-c3ccc4c(c3)OCO4)cc(C(F)(F)F)n2n1	83	94	-13	100
12	COc1cccc(-c2cc(C(=O)NCC3CCCO3)on2)c1 (stereo unspecified)	102	84	.	106
13	COC(=O)c1ccc(C(NC(=O)c2cccnc2)NC(=O)c2cccnc2)cc1	71	86	-24	.
14	COc1ccc(-c2cc(C(F)(F)F)n3ncc(-c4ccccc4)c3n2)cc1	103	83	-6	107
15	CCOC(=O)N1CCC(n2c(SCC(=O)N3CCC(C)CC3)nc3ccccc3c2=O)CC1	97	94	-31	104
16	CCOC(=O)C(Nc1ccc2c(c1)OCCO2)c1ccccc1 (stereo unspecified)	98	94	-6	101
17	CCC(=O)Nc1c(OC(=O)CC)ccc2c(C)cc(=O)oc12	97	82	-54	94
18	CC1=C(CCN2CCN(Cc3ccccc3)CC2)C(C)(C)CCC1	85	84	-2	99
19	COC(=O)c1ccccc1NC(=O)Cn1cc(S(=O)(=O)c2ccc(C)cc2C)c(=O)c2ccc(C)nc21	.	.	7	139
20	Cc1ccc(-c2nn3c(=O)cc(CN4CCN(S(=O)(=O)c5ccc(Cl)cc5)CC4)nc3s2)cc1	94	85	.	105
21	Cc1cccc(OCC(=O)Nc2cccc(C(=O)OCc3cc(=O)n4c(C)csc4n3)c2)c1	80	66	.	101
22	CCCNC(=O)Nc1ccc(OC(F)(F)F)cc1	98	83	-8	109
23	C/C(=N\NC(=O)Cc1c(C)[nH][nH]c1=O)c1ccc2ccccc2c1	81	81	-77	102
24	CCN1C(=O)CC(NC2CCN(c3ccc(C(F)(F)F)cn3)CC2)C1=O (stereo unspecified)	98	97	-23	102
25	Cc1ccc(-c2nc(=O)[nH]c3ccccc23)cc1	103	93	-63	104
26	O=c1[nH]nc(SCc2nc(-c3ccc(F)cc3)no2)n2nc(-c3ccc(F)cc3)cc12	.	.	-14	107
27	CCOc1ccc(-n2c(N)c(S(=O)(=O)c3ccccc3)c3nc(C#N)c(C#N)nc32)cc1	100	98	-7	.
28	O=c1[nH]cnc2c(-c3cccc(F)c3)c[nH]c12	.	.	-35	105
29	COc1ccc(C2N(c3ccc(-c4ccccc4)cc3)C(=O)N3CCCN23)cc1 (stereo unspecified)	.	.	-21	100
30	CC1(C)CC(=O)C(CC2=C(O)CC(C)(C)CC2=O)C(=O)C1	87	86	-13	.
31	COc1ccc2[nH]c(C(=O)Nc3ncc(C)cc3Br)cc2c1	106	65	-7	104
32	CCCn1c(SCc2nc(N)nc(N)n2)nc2sc3c(c2c1=O)CCC3	90	93	-3	.
33	COc1cccc(-c2nc(Cn3c(C(=O)c4cccc(F)c4)nc4ccccc43)c(C)o2)c1OC	.	.	-3	114
34	O=c1cc(COc2ccc(Cl)cc2Cl)nc2scc(-c3ccccc3)n12	87	77	-24	106
35	O=C(O)CNC(=O)c1ccc2c(c1)OCCO2	.	.	9	105
36	O=C(CCn1c(=O)c2cccn2c2ccc(F)cc21)NCCc1ccccc1Cl	149	84	-20	100
37	Cc1ccc2nc(-c3ccc(NC(=O)C(F)(F)F)cc3)sc2c1	91	104	-6	109
38	COCC(C)n1c(C)cc(C(=O)COC(=O)c2cccn2C)c1C (stereo unspecified)	142	88	-10	.
39	CCn1c(CSCC(=O)NC(C)C)nc2cc(S(=O)(=O)N3CCCCC3)ccc21	105	96	2	.
40	CCCCn1c2c(c(=O)n(C)c1=O)C(c1ccc(OC)cc1)C(NC(=O)c1ccccc1)C(=O)N2 (stereo unspecified)	87	101	-5	.

# Ordered by length of the SMILES (largest number first): some entries from above.
cpd	Compound	Sa growth inh	Sa growth inh second temp	HCMV UL50-53 inh	GIV Gai3 FP
19	COC(=O)c1ccccc1NC(=O)Cn1cc(S(=O)(=O)c2ccc(C)cc2C)c(=O)c2ccc(C)nc21	.	.	7	139
20	Cc1ccc(-c2nn3c(=O)cc(CN4CCN(S(=O)(=O)c5ccc(Cl)cc5)CC4)nc3s2)cc1	94	85	.	105
3	Cc1cc(S(=O)(=O)N2CCOCC2)ccc1N=Cc1c(C)[nH]n(-c2ccc(Cl)cc2)c1=O	109	82	-20	100
27	CCOc1ccc(-n2c(N)c(S(=O)(=O)c3ccccc3)c3nc(C#N)c(C#N)nc32)cc1	100	98	-7	.
5	CCN(C1CCS(=O)(=O)C1)S(=O)(=O)c1cc(N2C(=O)CCS2(=O)=O)ccc1C (stereo unspecified)	.	.	-5	103
21	Cc1cccc(OCC(=O)Nc2cccc(C(=O)OCc3cc(=O)n4c(C)csc4n3)c2)c1	80	66	.	101
15	CCOC(=O)N1CCC(n2c(SCC(=O)N3CCC(C)CC3)nc3ccccc3c2=O)CC1	97	94	-31	104
39	CCn1c(CSCC(=O)NC(C)C)nc2cc(S(=O)(=O)N3CCCCC3)ccc21	105	96	2	.
29	COc1ccc(C2N(c3ccc(-c4ccccc4)cc3)C(=O)N3CCCN23)cc1 (stereo unspecified)	.	.	-21	100
13	COC(=O)c1ccc(C(NC(=O)c2cccnc2)NC(=O)c2cccnc2)cc1	71	86	-24	.
23	C/C(=N\NC(=O)Cc1c(C)[nH][nH]c1=O)c1ccc2ccccc2c1	81	81	-77	102
24	CCN1C(=O)CC(NC2CCN(c3ccc(C(F)(F)F)cn3)CC2)C1=O (stereo unspecified)	98	97	-23	102
9	Cc1nn2c(C(F)(F)F)cc(-c3cccnc3)nc2c1-c1ccccc1	.	.	-5	106
30	CC1(C)CC(=O)C(CC2=C(O)CC(C)(C)CC2=O)C(=O)C1	87	86	-13	.
1	O=S(=O)(c1cccc(C(F)(F)F)c1)c1cnc2ccccc2n1	.	.	-23	103
38	COCC(C)n1c(C)cc(C(=O)COC(=O)c2cccn2C)c1C (stereo unspecified)	142	88	-10	.
18	CC1=C(CCN2CCN(Cc3ccccc3)CC2)C(C)(C)CCC1	85	84	-2	99
10	Cn1c(=O)c2c(nc(NCc3ccccc3)n2C)n(C)c1=O	94	87	-9	104
7	O=C(Nc1ccc(Cl)cc1)c1ccc(-n2cnnc2)cc1	101	85	.	107
28	O=c1[nH]cnc2c(-c3cccc(F)c3)c[nH]c12	.	.	-35	105
2	Cn1nccc1NC(=O)c1cccc2c1OC(C)(C)C2	100	106	8	100
8	CC1CCCN(S(=O)(=O)c2cccc(N)c2)C1 (stereo unspecified)	.	.	-30	100
22	CCCNC(=O)Nc1ccc(OC(F)(F)F)cc1	98	83	-8	109

# Whole records from above. Screens in order: Sa growth inh, Sa growth inh second temp, HCMV UL50-53 inh, GIV Gai3 FP
# O=C(CCn1c(=O)c2cccn2c2ccc(F)cc21)NCCc1ccccc1Cl across the screens: 149, 84, -20, 100
# Cc1ccc(-c2nn3c(=O)cc(CN4CCN(S(=O)(=O)c5ccc(Cl)cc5)CC4)nc3s2)cc1 across the screens: 94, 85, ., 105

# Further structures follow:
cpd	Compound	Sa growth inh	Sa growth inh second temp	HCMV UL50-53 inh	GIV Gai3 FP
41	Cc1cc(C)cc(NC(=O)N2CCC3(CC2)Oc2ccccc2C(=O)N3Cc2ccccc2F)c1	105	89	-11	101
42	C=CCn1c(SCC(=O)N2CCCCC2)nc2sc3c(c2c1=O)CCC3	.	.	-15	108
43	O=C(C1CCC(=O)N1S(=O)(=O)c1ccccc1)N1CCN(c2ccccc2F)CC1 (stereo unspecified)	.	.	-15	103
44	CC1CCC(NC(=O)c2ccc(CS(=O)(=O)c3ccc(Cl)cc3)o2)CC1 (stereo unspecified)	97	97	.	105
45	CCOC(=O)C(N)CSC1CCCCO1 (stereo unspecified)	91	85	-13&-8	93
46	NC(=O)c1ccccc1NC(=O)C1Nc2cc(F)ccc2S(=O)(=O)N1 (stereo unspecified)	.	.	-16	106
47	CC(C)C(=O)Nc1nn2c(-c3ccco3)nnc2s1	96	80	.	103
48	CCOC(=O)c1c(S(=O)(=O)N(C)Cc2ccccc2)c(C)n(C)c1C	85	88	-30	108
49	CCN(C(=O)c1cccs1)c1nnc(-c2cccc(C)c2)s1	107	93	-6	100
50	CCOC(=O)Cc1csc(SCC(=O)NC(C)(C)C)n1	99	93	1	.
51	COc1cc(OC)c(NC(=O)NC(C)c2c(-n3cccc3)sc(C)c2C)cc1Cl (stereo unspecified)	86	90	-6	106
52	CCN1CCN(C(=O)C2CCN(C3=NS(=O)(=O)C(c4ccc(OC)cc4)=C3C)CC2)CC1	.	.	-78	103
53	COc1ccc(-c2cc(-c3ccccc3)c(C#N)c(SCC(O)CS(=O)(=O)Cc3ccccc3)n2)cc1 (stereo unspecified)	98	87	-31	103
54	O=C(Nc1cccnc1)c1cc(-c2ccccc2)oc1C(F)(F)F	96	84	-17	100
55	CN1CCN(C(c2ccccc2)c2ccc(Cl)cc2)CC1 (stereo unspecified)	91	78	-19&-24	.
56	CCN(CC)S(=O)(=O)c1ccc(=O)[nH]c1	97	91	-16	.
57	COC(=O)C(O)(c1cc(C)n(CC(C)C)c1C)C(F)(F)F (stereo unspecified)	87	68	3	.
58	Cc1cccc(CNC(=O)Cc2csc3ccccc23)c1	92	99	17	107
59	CCN(CC)N=Nc1ccc(S(=O)(=O)N=C(C)O)cc1	109	100	-20	108
60	CCn1c(C(=O)N2CCC(C(=O)N3CCN(c4cc(C)ccc4C)CC3)CC2)cc2sccc21	104	46	-10	105
61	Cn1c(=O)n(C)c2cc(SC3CCCCC3)c(NS(=O)(=O)c3ccc(Br)cc3)cc21	.	.	-36	103
62	Cc1noc(C)c1C(=O)N1CC(C(N)=O)Oc2ccccc21 (stereo unspecified)	87	92	-9	.
63	COCCCNc1nc(Nc2ccc(OC)c(Cl)c2)c2cnn(C)c2n1	88	87	20	105
64	CCN1CCCC1CNC(=O)c1nnc(-c2oc3ccc(C)cc3c2C)o1 (stereo unspecified)	.	.	-14	109
65	CCOc1ccc(-c2nc3c(C#N)c[nH]n3c2NC2CCCCC2)cc1	97	96	-10	98
66	CC1=C(C#N)c2nc(N)c(C#N)c(C)c2/C1=C\c1cccnc1	101	90	-21	108
67	COC(=O)c1c(-c2ccc(Cl)cc2)noc1N1CCN(C)CC1	.	.	-27	99
68	O=C(CSc1nc2c([nH]c3ccccc32)c(=O)n1-c1ccccc1)Nc1ccc2c(c1)OCO2	107	93	.	110&106
69	Cc1cc(C)nc(/N=C(/N=C(\N)NC(=O)c2ccccc2)Nc2ccccc2)n1	109	89	1	.
70	N#C/C(=C\c1cccn1-c1ccc(Cl)cc1)C(=O)O	92	83	-133	105
71	Cc1ccc(NC(=O)C/C(N)=N/OCc2ccc(C#N)cc2)cc1	115	100	-8	.
72	COC(=O)c1ccc(CN2CCCC2c2ccc(Cl)cc2)cc1 (stereo unspecified)	.	.	-17	102
73	CCOc1ccc(-n2c(C)nc3c(cnn3-c3ccc(C)cc3)c2=O)cc1	99	88	0	108
74	COC(=O)c1cc2c(s1)CCC2	105	82	-27	.
75	CC(C)OCCCn1c(SCC(N)=O)nc2c(sc3ccccc32)c1=O	98	84	.	107
76	CNC(=S)N/N=C/c1ccc(C(C)C)cc1	129	66	-17	98
77	CC1(C)Oc2ccccc2OC1(O)c1ccc2ccccc2n1 (stereo unspecified)	94	97	-21	.
78	Cc1ccc(-c2nccc(N3CCCC(C(=O)NC4CCCc5ccccc54)C3)n2)cc1 (stereo unspecified)	.	.	4	103
79	CC12CN3CC(C)(CN(C1)C3c1ccccc1Cl)C2O (stereo unspecified)	.	.	-15	102
80	Cc1ccnc(Nc2nc3ccccc3s2)n1	99	79	-1	.
81	O=C(Cc1cccs1)Nc1nnc(C2CC2)s1	76	89	-30	.
82	O=C(Nc1ccccc1F)c1ccc(CN2CC(=O)N3CSCC3C2=O)cc1 (stereo unspecified)	.	.	-6	115
83	Cc1ccc(C)c(NS(=O)(=O)c2ccc3c(c2)CCCN3C(=O)C2CCC2)c1	74	87	.	101
84	Cn1cc(S(=O)(=O)N2CCCCC2)cc1C(=O)Nc1ccc2c(c1)OCO2	.	.	-25	107
85	Cc1cc(C(=O)OCC(=O)NC2CCCC(C)C2C)c(C)o1 (stereo unspecified)	105	88	-31	.
